VDR inh: Inhibitors of the vitamin D receptor (VDR): qHTS | actives 0.93% (n = 400,000) | Potency, µM, for the others: max response, negative = inhibition, usual class: inhibitors | VDR-SRC2-3 peptide fluorescence polarization, 2 h; active means well fitted inhibition curve with a large enough effect; inconclusive means small, poorly fitted or top-dose-only effect, or another doubt; inactive means no such curve, though single readings can be large or run the other way; further: series mostly up to about 120 µM
Target sequence (P11473 whole entry, looked up): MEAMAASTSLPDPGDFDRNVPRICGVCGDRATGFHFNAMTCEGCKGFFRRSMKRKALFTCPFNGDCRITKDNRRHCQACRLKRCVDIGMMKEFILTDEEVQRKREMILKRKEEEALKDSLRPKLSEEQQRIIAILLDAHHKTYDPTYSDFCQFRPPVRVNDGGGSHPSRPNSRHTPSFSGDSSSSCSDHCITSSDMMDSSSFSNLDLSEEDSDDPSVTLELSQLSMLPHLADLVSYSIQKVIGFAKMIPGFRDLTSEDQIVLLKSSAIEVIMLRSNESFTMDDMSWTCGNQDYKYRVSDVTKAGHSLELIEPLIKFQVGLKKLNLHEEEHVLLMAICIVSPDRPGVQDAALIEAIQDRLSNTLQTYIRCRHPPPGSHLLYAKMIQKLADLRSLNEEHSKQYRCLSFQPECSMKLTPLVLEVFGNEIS
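Inhibition of the VDR/SRC2-3 peptide interaction is quantified by fluorescence polarization. Compounds (23 nl, pintool) incubate with the reagents for 2 hours at ambient room temperature.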
* = called active by the depositor; ? = inconclusive; & = joins results of further samples. On the % scale 0 is the no-effect control and ±100 the full control effect; potency means the concentration at half of the fitted maximal effect. These rows are one share of the data; rates above refer to the full screens.

SMILES	VDR inh
CC(C(=O)NCc1ccccc1Cl)n1ccc2cc(S(=O)(=O)N3CCCCC3)ccc21 (stereo not drawn)	14.5%
CC(C)C(OC(=O)c1cccs1)C(=O)NCCc1ccccc1 (stereo not drawn)	10.3%
Cc1ccc(-c2noc(CN3CCN(C(c4ccccc4)c4ccccc4)CC3)n2)cc1	-17.3%
CC(=O)Nc1ccc(S(=O)(=O)NCC2CCC(C(=O)N3CCCCCC3)CC2)cc1 (stereo not drawn)	24.2%
CC(C)c1ccc(-n2cccc2/C=C2/C(=N)N3C=CSC3=NC2=O)cc1	-12.6%
O=C(CSc1nnc(-c2ccco2)o1)c1ccccc1Cl	-14.1%
O=C(O)C1C2C=CC(O2)C1C(=O)NC1CCCc2ccccc21 (stereo not drawn)	8.4%
CCSc1nnc2ccc(-c3ccco3)nn12	-2.9%
N#CC12C(N)=NC3(OCCO3)C1(C#N)C1=C(CCC1)NC2c1ccccc1 (stereo not drawn)	20.6%
O=C(Cn1cc(S(=O)(=O)Cc2ccc(F)cc2)c2ccccc21)NCCc1ccccc1	4.4%
CCOc1ccc(N(CC(=O)NCCc2ccccc2)C(=O)c2csnn2)cc1	-12.2%
CCN(CC)CCNC(=S)Nc1ccc2nc(N3CCN(CC)CC3)cc(C)c2c1	5.2%
COC(=O)/C=C/c1cc(F)ccc1S(=O)(=O)NC(C)(C)C	-5.5%
C[n+]1ccn(CC(=O)c2cccs2)c1	?
CCOC(=O)C1(Cc2cccc(OC)c2)CCN(Cc2cccc3cnccc23)CC1	13.9%
CCN1CCN(S(=O)(=O)c2cc(C)c(OC)cc2C)CC1	9.2%
CN(Cc1cc2ccccc2[nH]c1=O)S(C)(=O)=O	-14.9%
NC(=O)C1(C(=O)O)OC1(c1ccc(Cl)cc1)c1ccccc1Cl (stereo not drawn)	-8.9%
Cc1ccc(-c2csc3nc(SCC(=O)N(C)C)n(Cc4ccccc4)c(=O)c23)cc1	-8.9%
COC(=O)Nc1nnc(-c2ccccc2OC)s1	-5.4%
Cc1[nH]n(-c2ccccc2)c(=O)c1C=NC1CCCCCC1	-3.9%
CC(=O)Nc1ccc(N2CCOCC2)c(C(=O)Nc2cccc(C)c2)c1	0.5%
COC(=O)CNC(=O)C1CCN(S(=O)(=O)c2cccc3nsnc23)CC1	-5.5%&0.4%
COc1cccc(CN(C)C(=O)CC23CC4CC(CC(C4)C2)C3)c1OC	3.2%
CC(C)NC(=O)c1ccc2c(=O)n(CC3CCCO3)c(=S)[nH]c2c1 (stereo not drawn)	-21.6%
O=C(CN1CCN(c2ccccn2)CC1)Nc1ccc2ccccc2c1	-2.1%
CC(C)CC(=O)Nc1ncnc2c1C(=O)CC(C)(C)C2	15.5%
O=C1N2CCSC2=NC1(Nc1ccccn1)C(F)(F)F (stereo not drawn)	18.0%
O=C(CNC(=O)c1ccc(Br)o1)Nc1cccc(S(=O)(=O)N2CCCC2)c1	9.7%
O=C(Nc1cccc(Cl)c1)OCc1cncs1	-1.2%
CCN(CC(=O)Nc1ccc(NC(C)=O)cc1)C(=O)C1CCN(C(=O)c2ccccc2C)CC1	13.1%
NC1=NC(c2cn(-c3ccccc3)nc2-c2cccs2)n2c(nc3ccccc32)N1 (stereo not drawn)	-7.8%
O=C(Cn1cnc2ccccc21)NCCCN1CCOCC1	-0.8%
O=C(NCCC(=O)N1CCN(S(=O)(=O)c2ccc(F)cc2)CC1)Nc1ccccc1	-8.0%
Oc1ccc(C(=Nc2ccccc2)c2ccccc2)c(O)c1	-2.4%
CCOC(=O)c1ccc(NC(=O)CC(C)n2nc(C)cc2C)cc1 (stereo not drawn)	24.6%

Some of these compounds in order of their number in VDR inh, smallest number first:
SMILES	VDR inh
O=C(CNC(=O)c1ccc(Br)o1)Nc1cccc(S(=O)(=O)N2CCCC2)c1	9.7%
CC(C)CC(=O)Nc1ncnc2c1C(=O)CC(C)(C)C2	15.5%
CCOC(=O)c1ccc(NC(=O)CC(C)n2nc(C)cc2C)cc1 (stereo not drawn)	24.6%

Carrying on:
SMILES	VDR inh
COc1ccc2c(c1)OC[C@H]1[C@H]2N2C(=O)CN(Cc3ccccc3)C(=O)[C@@]2(C)[C@H]1c1ccccc1	3.6%
CCN(CC)c1ccc(C(=O)N/N=C(\C)c2cccnc2)cc1	-1.9%
COc1cc(OC)nc(Oc2ccc(N)c(C)c2)n1	1.6%
CC(C)(C)OC(=O)N1CCC2(CC1)Oc1ccc(Cl)cc1C(=O)C21CC(c2ccc(Cl)cc2)=NO1 (stereo not drawn)	-18.6%
COCCCNC(=O)CSc1nc2nc(C)c(Cc3ccccc3Cl)c(C)n2n1	-4.7%
CCn1cc(C(=O)N2CCn3c(nc4ccccc43)C2)c(=O)c2ccc(C)nc21	-0.2%
CCC(CC)NC(=O)COn1nnc2ccc(S(=O)(=O)N3CCOCC3)cc21	-4.6%
O=C(CCc1nnc(-c2ccc(-c3ccccc3)cc2)o1)NCCc1ccccn1	18.6%
CCCNS(=O)(=O)c1ccc(OCC(=O)Nc2ccc3c(c2)OCCO3)cc1	-5.5%
O=C(COC(=O)c1ccccn1)NCCc1ccc(Cl)cc1	-5.0%
CSc1ncccc1C(=O)NNc1cc(Cl)ccc1Cl	6.6%
CCSc1nnc(-c2cccnc2)n1Cc1ccco1	5.8%

Reprinted at random: seven compounds from above, in no set order.
SMILES	VDR inh
COc1cc(OC)nc(Oc2ccc(N)c(C)c2)n1	1.6%
CCn1cc(C(=O)N2CCn3c(nc4ccccc43)C2)c(=O)c2ccc(C)nc21	-0.2%
COCCCNC(=O)CSc1nc2nc(C)c(Cc3ccccc3Cl)c(C)n2n1	-4.7%
CC(C)(C)OC(=O)N1CCC2(CC1)Oc1ccc(Cl)cc1C(=O)C21CC(c2ccc(Cl)cc2)=NO1 (stereo not drawn)	-18.6%
CCCNS(=O)(=O)c1ccc(OCC(=O)Nc2ccc3c(c2)OCCO3)cc1	-5.5%
CCC(CC)NC(=O)COn1nnc2ccc(S(=O)(=O)N3CCOCC3)cc21	-4.6%
COc1ccc2c(c1)OC[C@H]1[C@H]2N2C(=O)CN(Cc3ccccc3)C(=O)[C@@]2(C)[C@H]1c1ccccc1	3.6%

Next part
SMILES	VDR inh
Cc1cc(/C=C2\SC(=S)N(Cc3ccco3)C2=O)c(C)n1-c1ccccc1	0.2%
N#CCCN(Cc1cccs1)C(=O)c1ccc(Cl)cc1	-14.2%
Cc1[nH]c2ccccc2c1C(=O)C(=O)NCCOc1ccccc1	11.0%
O=C(CSc1nnc(-c2ccccc2F)o1)N1CCCC1	3.4%
Cc1nc2cncnc2n(Cc2ccc(F)cc2)c1=O	?
O=C(N/N=C/c1coc2ccc(Cl)cc2c1=O)c1ccc(O)cc1	5.8%
O=C(c1ccco1)N(Cc1ccco1)c1ccc(O)cc1	16.4%
COc1ccc2oc(C(=O)OCC(=O)N3CCN(S(=O)(=O)c4ccccc4)CC3)c(C)c2c1	-11.7%
CCOc1nc(C)ccc1-c1noc(-c2ccccc2OC)n1	-4.2%
O=[N+]([O-])c1cc(Cl)ccc1NCCNc1ncc(C(F)(F)F)cc1Cl	13.4%
CN(C(=O)Nc1cccc(C(F)(F)F)c1)C1CCCCC1	-3.1%
CC(C)NC(=O)[C@H](CSCc1ccccc1)N1Cc2ccccc2C1=O	2.6%

Structures from the list above with a tert-butyl group:
SMILES	VDR inh
COC(=O)/C=C/c1cc(F)ccc1S(=O)(=O)NC(C)(C)C	-5.5%
CC(C)(C)OC(=O)N1CCC2(CC1)Oc1ccc(Cl)cc1C(=O)C21CC(c2ccc(Cl)cc2)=NO1 (stereo not drawn)	-18.6%

(continued)
SMILES	VDR inh
O=C(CC(=O)N/N=C\c1ccccc1)NCCc1ccccc1	-14.9%
CCOC(=O)/C(=N/Nc1ccc(Cl)cc1)S(=O)(=O)c1ccc(Cl)cc1	3.5%
Cc1cccc(-c2nnc3n2N=C(c2ccc(Br)cc2)CS3)c1	4.2%
O=C1C=CC(=Nc2ccc3c(c2)Cc2ccccc2-3)O1	5.1%
N#Cc1ccc(Oc2ccc(NC(=O)C3CC=CCC3C(=O)O)cc2)cc1 (stereo not drawn)	-1.6%
Cc1ccc(S(=O)(=O)N(CC(=O)NC2CC2)c2ccc(C)c(Cl)c2)cc1	-10.7%
Cc1ccc(O)c(NC(=O)/C=C/C(=O)O)c1	-34.1%
O=C(N=C1SC2CS(=O)(=O)CC2N1c1ccccc1)c1ccccc1 (stereo not drawn)	4.2%
COc1cc(C(=O)NCCNC(=O)C2CCCNC2=O)cc(OC)c1OC (stereo not drawn)	-5.3%
CC1CC(C)CN(S(=O)(=O)CC23CCC(CC2=O)C3(C)C)C1 (stereo not drawn)	16.2%
Cc1cc(C(=O)NNC(=O)c2ccccc2O)c(C)o1	-13.9%
CCn1cc(C(=O)N2CCN(c3ccccc3F)CC2)c(=O)c2cc(S(=O)(=O)N(C)C3CCCCC3)ccc21	9.2%
Cn1c(CCN2CCCCC2)nc2cc(NC(=O)Nc3ccccc3)ccc21	-6.1%
COc1ccc(N2CCN(C(=O)CCc3nnc4ccc(N5CCC(C)CC5)nn34)CC2)cc1	-0.7%
O=C(O)c1cccc(-c2ccc(/C=N/Nc3nn[nH]n3)o2)c1	0.6%
CCOn1c(=O)c(-c2ccc(F)cc2)[n+]([O-])c2ccccc21	-0.1%
Cn1c(CN2CCN(c3ccc(Cl)cc3)CC2)nc2ccccc21	7.6%
CCOC(=O)C(C)n1cnc2c(nnn2-c2cccc(OC)c2)c1=O (stereo not drawn)	-11.0%
O=C(NCc1ccccc1)c1c(O)c2cccc3c2n(c1=O)CCC3	3.3%
CCCn1c(=N)c(S(=O)(=O)c2ccc(F)cc2)cc2c(=O)n3ccccc3nc21	-26.0%
CC1Oc2ccccc2N(CC(=O)NCc2ccc3c(c2)OCO3)C1=O (stereo not drawn)	10.9%
Cc1nc2ccccc2c(=O)n1/N=C/c1ccccc1O	1.3%
COc1ccccc1N1CCN(CC(=O)Nc2c(C)n[nH]c2C)CC1	-24.3%
O=C(CN1C(=O)S/C(=C\c2ccc(F)cc2)C1=O)NCCCn1ccnc1	-4.5%
COc1c(Cl)ccc(Cl)c1C(=O)NC(=O)Nc1nc(C)cc(C)n1	-0.5%
O=C(NNC(=O)C1CCCC1)c1cc([N+](=O)[O-])cc([N+](=O)[O-])c1	-8.6%
O=C(NCc1cccnc1)C(=O)NCC(c1ccco1)N1CCN(c2ccccc2)CC1 (stereo not drawn)	6.6%
Nc1nc(-c2ccc(F)cc2)cs1	-13.6%
CCN(C(=O)c1c(C)noc1C)c1c(N)n(Cc2ccccc2)c(=O)[nH]c1=O	7.4%
Cn1cnnc1SCC(=O)Nc1ncc([N+](=O)[O-])s1	-16.9%
O=C(CSc1nc2ccccc2[nH]1)N/N=C/c1ccncc1	-1.0%
C=C[C@H](CC(C)C)N(Cc1ccccc1)S(=O)(=O)N(Cc1ccccc1)[C@@H](C=C)CC(C)C	5.2%
COc1ccc(Cl)cc1NC(=O)CSc1nnc(CN2CCOCC2)n1-c1ccc(Cl)cc1	10.0%
COc1cc(/C=N\Nc2nc(-c3cccs3)c(NC(C)=O)s2)ccc1O	?
CCc1cccc(CC)c1N(COC)C(=O)Cn1c(CC)nc2ccccc21	-13.5%
COc1ccc(C(C)=O)cc1CSc1nc(NCc2ccc(Cl)cc2)c2ccccc2n1	7.1%
CCN(CC)S(=O)(=O)c1ccc(NC(=O)COC(=O)c2cnc(C)cn2)cc1	16.6%
COc1ccc(OCc2nc(N)nc(Nc3ccccc3)n2)cc1	-12.4%
Cc1cccc(/C=C/c2ccccc2)n1	2.5%&7.5%
COC(=O)c1ccccc1NC(=O)c1cccc(NC(=O)c2ccc(Br)o2)c1C	26.6%
CCCCc1ccc(NC(=S)NCCc2ccc(S(N)(=O)=O)cc2)cc1	-7.5%
CCOc1ccc(N(CC(=O)NN=C2CCCC2)S(C)(=O)=O)cc1	7.2%
CCOC(=O)C1=C(O)/C(=C/c2ccc(OCC(=O)O)c(OC)c2)SC1=Nc1ccc(OC)cc1	-15.4%
CC(=O)N1CCSc2ccc(S(=O)(=O)NCCc3ccc(C)cc3)cc21	9.3%
CC(=O)NCCNC(=O)[C@H](Cc1ccccc1)NC(=O)c1cccs1	14.2%
COc1ccccc1C(=O)C(O)c1ccccc1OC (stereo not drawn)	6.0%
CC1(C)Cc2ccccc2-c2nnc(SCC(=O)Nc3ccc4c(c3)OCO4)n21	-8.9%
O=C1Oc2ccccc2C(=O)/C1=C/N1CCN(c2ccccc2F)CC1	-5.9%
COc1cc2[nH]c(=S)n(Cc3ccco3)c(=O)c2cc1OC	-13.0%
NC(=O)CSCc1c(Cl)cccc1Cl	-3.6%
COc1ccc(OC)c(NC(=O)N2c3ccccc3Sc3ccccc32)c1	-6.4%
CCCOc1ccc(-c2nc3ccccc3c(=O)o2)cc1	-17.8%
O=C(NNc1nc2c(F)cccc2s1)C1COc2ccccc2O1 (stereo not drawn)	-12.8%
CC[C@@]12C(=O)N(c3cccc(Br)c3)C(=O)N1[C@H](c1ccc(OC)cc1)[C@@H]1C(=O)N(C(C)(C)C)C(=O)[C@@H]12	9.5%
O=C(NNc1ccccc1)C(=O)NNS(=O)(=O)c1ccc(CCCl)cc1	-14.8%
COc1ccc(CCC(=O)N2CCN(c3cccc(C)c3C)CC2)cc1	-21.2%
Cc1ccc(S(=O)(=O)N2CCCCC2)cc1NC(=O)Cn1cnnn1	-8.2%
CCOC(=O)c1c(NC(=O)c2ccc(S(=O)(=O)N(C)C3CCCCC3)cc2)sc2c1CCN(C(C)C)C2	-2.1%
Cc1cc(=O)c(C(=O)Nc2cccc(C(=O)NC3CC3)c2)nn1-c1ccccc1Cl	16.2%
Cc1ccnc(NS(=O)(=O)c2ccc(NC(=O)Cc3c(F)cccc3Cl)cc2)n1	-0.3%

(next part)
SMILES	VDR inh
COc1ccc(C(=O)N/N=C(\C)c2ccc3c(c2)C2C=CCC2C(c2ccccc2)N3)cc1 (stereo not drawn)	-24.0%
Nc1c2c(nc3sc4c(c13)CCCC4)-c1ccccc1CC2	-2.6%
CCOC(=O)c1sc(NC(=O)c2cccc(S(=O)(=O)N3c4ccccc4CC3C)c2)cc1C (stereo not drawn)	-3.0%
COc1ccc(C(=O)CC(=O)c2ccccc2O)cc1OC	-1.6%

Screening data (PubChem BioAssay)
